Bioassay records deposited in PubChem BioAssay by National Center for Advancing Translational Sciences (NCATS).
RGS12 GoLoco inh: qHTS Assay for Inhibitors of RGS12 GoLoco Motif Activity (Red Fluorophore); Potency, µM (top dose mostly 61.6 µM), without a hit: at the highest dose activity, negative = inhibition, actives largely listed as inhibitors; Guanine nucleotide-binding protein G(i) subunit alpha-1 (Homo sapiens), P63096; Gai1:RGS12 GoLoco peptide FP, rhodamine, 10 min; 230,000 compounds, 0.44% hits; active means well fitted inhibition curve with a large enough effect, not every such curve was filed as active; inactive means no such curve, though single readings can be large or run the other way; further: on the % scale 0 is the no-effect control and ±100 the full control effect; nearly all actives have a fitted effect of over 30% in size; many of its hits are not listed in these tables
TR SRC2 fluor cs: Total Fluorescence Counterscreen for Inhibitors of the Interaction of Thyroid Hormone Receptor and Steroid Receptor Coregulator 2 | TRb/SRC2 Texas Red total fluorescence interference | Potency, µM (doses to about 106 µM), for the others: top-dose fluorescence change, negative = quenching | 280,000 compounds, 0.29% hits | AID 1479, 2009; active means well fitted curve in either direction with a large enough effect; inconclusive means small, poorly fitted or top-dose-only effect; further: on the % scale 0 is the no-effect control and ±100 the full control effect
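Human TRb ligand-binding domain at 0.6 uM with 20 nM Texas Red SRC2 peptide in Tris buffer containing 1 uM T3 and 5% DMSO, incubated with compound 5 h at ambient temperature. Total fluorescence (555/632 nm) calculated as parallel + 2 × perpendicular.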
JMJD2E inh: qHTS Assay for Inhibitors of Human Jumonji Domain Containing 2E (JMJD2E); Potency, µM (top dose mostly 57.1 µM), inactives show at the highest dose activity change, negative = inhibition, usual class: inhibitors; JMJD2E catalytic domain, FDH-coupled NADH fluorescence (FDH is formaldehyde dehydrogenase); 230,000 compounds, 1.6% hits; Lysine-specific demethylase 4E (Homo sapiens), B2RXH2; active means well fitted inhibition curve with a large enough effect, not every such curve was filed as active; inconclusive means small, poorly fitted or top-dose-only effect, or another doubt; inactive means no such curve, though single readings can be large or run the other way;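 further: 0% = wells with enzyme and -100% = buffer wells without enzyme; nearly all actives have a fitted effect of over 50% in size; many of its hits are not listed in these tables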
Target sequence (B2RXH2 1-337 limits assumed): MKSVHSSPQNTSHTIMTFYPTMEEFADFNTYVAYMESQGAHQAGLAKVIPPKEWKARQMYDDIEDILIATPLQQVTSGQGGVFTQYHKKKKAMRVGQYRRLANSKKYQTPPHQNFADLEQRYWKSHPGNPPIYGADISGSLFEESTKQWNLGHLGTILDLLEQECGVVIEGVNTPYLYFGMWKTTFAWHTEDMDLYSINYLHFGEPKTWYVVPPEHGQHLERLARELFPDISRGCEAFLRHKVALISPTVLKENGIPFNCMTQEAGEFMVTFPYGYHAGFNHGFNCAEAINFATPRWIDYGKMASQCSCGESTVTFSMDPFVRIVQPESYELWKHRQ
SMN2 splice enh: qHTS Assay for Enhancers of SMN2 Splice Variant Expression; HEK293 SMN2-luciferase splicing reporter, luminescence, 30-36 h; Potency, µM (titrated, usually from 46.1 µM), for the others: top-dose activity change, positive = activation, actives largely listed as activators; 210,000 compounds, 2.8% hits; AID 1458, 2008; further: % of control where 0% means no effect; nearly all actives have a fitted effect of over 55% in size
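HEK293 cells carry an SMN2 minigene-luciferase reporter in which exon 7 inclusion puts luciferase in frame. Cells were seeded at 2000 cells/well, attached for 10-12 hours, then exposed to compounds for 30-36 hours at 37C before ONE-Glo luminescence.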
TRb SRC2 PPI: qHTS for Inhibitors of the Interaction of Thyroid Hormone Receptor and Steroid Receptor Coregulator 2; Thyroid hormone receptor beta (Homo sapiens), P10828; Potency, µM (titrated, usually from 106 µM), for the others: at the highest dose activity change, negative = inhibition, actives largely listed as inhibitors; TRbeta-SRC2 peptide binding, fluorescence polarization; receptor liganded with 1 µM T3; 280,000 compounds, 0.065% hits;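 further: plate controls were bound peptide for no effect and peptide without receptor for full effect; nearly all actives have a fitted effect of over 50% in size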
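Quantitative HTS by FP: 0.6 uM TRb LBD, 20 nM labeled SRC2 20-mer, 1 uM T3, 5% DMSO; 5 hr ambient incubation; % activity per concentration and potencies from concentration series.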
RECQ1 helicase: qHTS Assay for Inhibitors of RecQ-Like Dna Helicase 1 (RECQ1); ATP-dependent DNA helicase Q1 (Homo sapiens), P46063; RECQ1 DNA unwinding, red fluorescence kinetic read; Potency, µM (titrated, usually from 57.3 µM), for inactives: at the highest dose activity, negative = inhibition, hits mostly inhibitors; 240,000 compounds, 0.54% hits; AID 2549, 2010;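 further: plate controls were vehicle for no effect and no enzyme for full effect; nearly all actives have a fitted effect of over 30% in size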
Target sequence (P46063 whole entry, looked up): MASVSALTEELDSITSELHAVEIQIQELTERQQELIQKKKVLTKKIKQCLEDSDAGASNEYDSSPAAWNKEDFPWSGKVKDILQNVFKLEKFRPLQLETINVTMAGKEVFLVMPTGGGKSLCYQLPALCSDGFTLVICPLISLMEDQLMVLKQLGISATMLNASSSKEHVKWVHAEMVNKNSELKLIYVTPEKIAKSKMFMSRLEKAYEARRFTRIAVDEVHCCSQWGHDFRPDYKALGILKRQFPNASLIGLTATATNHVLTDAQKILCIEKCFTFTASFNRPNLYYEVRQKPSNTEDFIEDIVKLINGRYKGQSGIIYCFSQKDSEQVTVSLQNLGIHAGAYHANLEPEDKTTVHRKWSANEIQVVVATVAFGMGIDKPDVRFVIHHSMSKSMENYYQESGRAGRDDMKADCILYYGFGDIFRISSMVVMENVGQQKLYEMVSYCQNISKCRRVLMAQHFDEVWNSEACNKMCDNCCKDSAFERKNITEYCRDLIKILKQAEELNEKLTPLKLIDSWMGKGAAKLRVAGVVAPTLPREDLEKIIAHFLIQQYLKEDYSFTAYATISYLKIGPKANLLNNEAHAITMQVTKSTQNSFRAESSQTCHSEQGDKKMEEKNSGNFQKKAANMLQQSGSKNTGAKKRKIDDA
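RECQ1T1 50 nM; forked duplex (20 bp + 30-nt ss tails) 200 nM, ATP 2 mM final; pH 8.0, 2 mM MgCl2, 2.5 ug/ml poly(dI-dC); 15 min compound preincubation; discontinuous kinetic read over 2 h at RT.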
LMNA splice mod: qHTS Assay for Modulators of Lamin A Splicing; HeLa LMNA splicing GFP/RFP minigene ratio, 48 h; Potency, µM (doses to about 46.1 µM), for inactives: at the highest dose ratio change, negative = inhibition, most hits filed as inhibitors; 200,000 compounds, 0.01% hits; active means well fitted inhibition curve with a large enough effect in the signal ratio, with a control signal flat, not every such curve was filed as active; inconclusive means small, poorly fitted or top-dose-only effect, or effect the other way, or a change in a side signal; the % refers to the signal ratio; further: on the % scale 0 is the no-effect control and ±100 the full control effect
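S3 HeLa cells stably expressing lamin A-EGFP splicing minigene plus DsRed2, 600 cells/well, 48 h compound exposure at 37C. Laser-scanning cytometry; analysed as GFP (500-530 nm)/RFP (575-640 nm) total intensity ratio; 0.5% DMSO vehicle.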
An asterisk follows results filed as active; i = inactive; ? = inconclusive; . = no result given; & = joins results of further samples; [ ] = dose if it differs, or a comment. Unless noted, the call rests on the fitted dose curve; in most records, active means well fitted curve in the direction sought with a large enough effect; inconclusive means small, poorly fitted or top-dose-only effect, or another doubt; inactive means no such curve, though single readings can be large; an effect the other way counts as inactive or inconclusive. Potency means the concentration at half of the fitted maximal effect. Not all compounds are listed; count on the stated rates, not on these rows.

Every second line gives: RECQ1 helicase	LMNA splice mod	JMJD2E inh	TR SRC2 fluor cs	RGS12 GoLoco inh	SMN2 splice enh	TRb SRC2 PPI
1. O=[N+]([O-])c1ccccc1Oc1cnc2ccccc2n1
  2%	-4%[46 µM]	4%	1%	-4%	1%	-8%
2. CC(=O)Nc1ccc(NC(=O)CSc2nnc(-c3ccccc3)n2Cc2ccc3c(c2)OCO3)cc1
  i	-1%	-6%	-6%	-5%	5%	-2%
3. CCOC(=O)C1=C(C)N(C)C(=S)NC1c1ccccc1Cl (stereo not given)
  3%	17%	1%	-3%	10%	-20%	-16%
4. C[C@H](O/N=C1/[C@H]2O[C@@H]2[C@@H](O)[C@H]2[C@H]1CCn1c(=O)n(-c3ccccc3)c(=O)n12)c1cn([C@H]2COC[C@H]2O)nn1
  -3%[11.5 µM]	.	.	-4%[11.2 µM]	.	.	0%[11.2 µM]
5. CCCCSCCCNC(=O)Nc1cccc(OC)c1
  i	4%	0%	-2%	9%	-4%	5%
6. COc1cc(NC(=S)N2CCCC(C)C2)cc(OC)c1OC (stereo not given)
  i	.	10%	-3%	13%	15%	-6%
7. CCOc1cc(C#N)c(NC(=O)c2ccnn2C)cc1OCC
  1%	-9%	-5%	0%	7%	-2%	2%
8. Cc1c(Cl)cccc1NC(=O)CNc1cccc(C(F)(F)F)c1
  -1%	-9%	3%	-3%	.	.	-2%
9. O=C1C2C3C=CC(C3)C2C(=O)N1CC1CCCO1 (stereo not given)
  -5%	3%	1%	0%	-5%	-9%	-4%
10. CC(C)OC(=O)CC1C(=O)NCCN1C(=S)NC(=O)CCc1ccccc1 (stereo not given)
  -14%	?	-5%	0%	8%	.	2%
11. COc1ccc(/C=C(\C#N)C(=O)OCC(=O)Nc2c(C)cccc2C)cc1
  -5%	-5%	-15%	-3%	17%	-26%	-4%
12. O=C(NC1=C(Nc2ccc(F)cc2)C(=O)c2ccccc2C1=O)c1ccc(Cl)cc1
  0%	-22%	3%	-1%	-8%	13%	-2%
13. COC(=O)c1ccc(NC(=O)CSc2nncn2C)cc1
  i	10%	2%	-1%	4%	-5%	-13%
14. Cc1cc(C(F)(F)F)n2nc(C(=O)O)c(Cl)c2n1
  -4%	4%	-7%	-5%	-12%	11%	11%
15. CC(C)OCC(O)CN1CCN(C(c2ccccc2)c2ccccc2)CC1 (stereo not given)
  i	-17%[46 µM]	-1%	0%	1%	-4%	1%
16. Cc1ccc2[nH]c(C)c(CCNC(=O)C3CCCCC3C(=O)OCC(F)(F)F)c2c1 (stereo not given)
  0%	-8%	-5%	1%	9%	10%[1.84 µM]	4%
17. Cc1cc(NC(=O)C2CC(=O)N(c3ccccc3)C2)no1 (stereo not given)
  9%	-10%	4%	1%	-1%	-12%[1.84 µM]	1%
18. Cc1nc2ccccn2c1C(=O)/C=C/c1ccc(F)cc1
  -5%	?	0%	-4%	4%	-39%[inhibitor]	-4%
19. CCCN(CCC)CCNS(=O)(=O)c1ccc2c(c1)oc(=O)n2C
  -8%	12%	1%	-5%	14%	2%	-3%
20. COCCn1c(=S)[nH]c2cc(C(=O)N3CCc4ccccc4C3)ccc2c1=O
  -15%	.	-4%	0%	141%[activator]	-57%[inhibitor]	-3%

Full records as entered above:
CC(C)OC(=O)CC1C(=O)NCCN1C(=S)NC(=O)CCc1ccccc1 (stereo not given) across the screens: RECQ1 helicase: -14%; LMNA splice mod: ?; JMJD2E inh: -5%; TR SRC2 fluor cs: 0%; RGS12 GoLoco inh: 8%; SMN2 splice enh: .; TRb SRC2 PPI: 2%
O=C1C2C3C=CC(C3)C2C(=O)N1CC1CCCO1 (stereo not given) across the screens: RECQ1 helicase: -5%; LMNA splice mod: 3%; JMJD2E inh: 1%; TR SRC2 fluor cs: 0%; RGS12 GoLoco inh: -5%; SMN2 splice enh: -9%; TRb SRC2 PPI: -4%

Down the list, quoted from above.
TRb SRC2 PPI for entries 7 to 15: 2%, -2%, -4%, 2%, -4%, -2%, -13%, 11%, 1%
JMJD2E inh for entries 7 to 15: -5%, 3%, 1%, -5%, -15%, 3%, 2%, -7%, -1%
SMN2 splice enh for entries 7 to 15: -2%, ., -9%, ., -26%, 13%, -5%, 11%, -4%

The list continues.
Every second line gives: RECQ1 helicase	LMNA splice mod	JMJD2E inh	TR SRC2 fluor cs	RGS12 GoLoco inh	SMN2 splice enh	TRb SRC2 PPI
21. COc1ccc(C(=O)N2CCC3(CC2)CCN(c2ncccn2)CC3)cc1
  -11%	.	.	.	12%	-16%	.
22. COc1cc(CC(=O)O)ccc1OCc1ccccc1
  4%	19%[46 µM]	9%	-4%	8%	.	-5%
23. Cc1cccc(Oc2cc(N)cc([N+](=O)[O-])c2)c1
  i	-13%	-4%	-7%	14%	-7%	3%
24. CN1CCC[C@H](C(=O)OCC(=O)[C@]2(O)CC[C@@H]3[C@H]4CCC5=CC(=O)CC[C@@]5(C)[C@H]4[C@@H](O)C[C@]32C)C1
  .	.	.	.	3%[14.2 µM]	0%[9.22 µM]	.
25. NC(=O)CSc1nnc2sc3ccccc3n12
  -3%	-4%	5%	-3%	4%	2%	-1%
26. CC12CC3(C)CC(C)(C1)CC(C(=O)NC(=S)N1CCOCC1)(C2)C3
  -6%	4%	2%	1%	-2%	20%	-7%
27. CC(=O)N1CC=CC1(C)C(=O)O (stereo not given)
  -10%&-8%	0%	-1%&6%	1%&2%	-4%&-4%	-2%&-2%	4%&11%
28. COc1ccccc1NC(=O)c1ccc(NC(=O)CSc2n[nH]c(N)n2)cc1
  -21%	-9%	9%	0%	4%	-9%	2%
29. Cc1cc(=O)[nH]c(SCC(=O)c2ccc(C)c(C)c2)n1
  0%	?	-3%	-1%	12%	-22%	-1%
30. O=C(O)C1CCN(C(=O)c2ccccc2C(=O)N2CCC(C(=O)O)CC2)CC1
  0%	5%	-9%	-1%	-16%	-18%	-2%
31. O=C(Cn1c(CSc2ccccc2)nc2ccccc21)Nc1ccccc1
  i	-5%	1%	1%	7%	1%	6%
32. CCc1cc2cccc(C)c2nc1SCC(=O)Nc1cc(C)on1
  -12%	7%[46 µM]	-19%	-1%	8%	.	3%
33. COc1cccc2c1OCC(CN1CCN(CCC(C)C)C(CCO)C1)=C2 (stereo not given)
  13%	6%[46 µM]	9%	-1%	7%	.	-5%
34. Cc1cc(S(=O)(=O)N2CCCC(C(=O)Nc3ccc(C(=O)O)cc3)C2)ccc1Cl (stereo not given)
  i	0%[46 µM]	8%	-4%	11%	-3%	-6%
35. COc1ccc(OCC(O)CNC(=O)c2ccccc2C(=O)O)cc1 (stereo not given)
  -5%	0%	3%	-5%	10%	-10%	-6%
36. O=C(C1CCN(S(=O)(=O)N2CCOCC2)CC1)N1CCN(Cc2ccccc2)CC1
  -11%	-5%	7%	0%	-11%	-9%	5%
37. O=C(COC(=O)CCc1ccccc1)Nc1ncc(Cl)cc1Cl
  1%	4%	9%	0%	2%	-11%	2%
38. O=C(NC1CCN(C(=S)NCc2ccco2)CC1)NC12CC3CC(CC(C3)C1)C2
  14%	2%	4%	-1%	11%	-11%	-2%
39. COc1ccc(N(CC(=O)Nc2cc(Cl)ccc2OC)S(=O)(=O)c2c(C)noc2C)cc1
  -17%	?	-5%	-1%	1%	-19%	-9%
40. CCOCCCNC(=O)NC(=O)CN1CCN(S(=O)(=O)c2ccc3c(c2)OCCO3)CC1
  i	7%[46 µM]	1%	-5%	7%	5%	-2%
41. CCCc1nnc(NC(=O)CN2CCN(C)CC2)s1
  -6%	3%	5%	-1%	6%	4%	-16%
42. CN1CCN(C(=O)c2ccccc2Nc2ccc(SC(F)F)cc2)CC1
  i	?	-19%	-3%	1%	1%	2%
43. CCCCS/C(N)=N/N=C/c1cc(C)ccc1O
  -7%	?	-26%	-1%	-6%	15%	0%
44. CCNC(=O)n1nccc1C(C)Oc1ccccc1 (stereo not given)
  i	2%	5%	-4%	-10%	-12%	-2%
45. CCc1ccc(N2CN(Cc3ccco3)CNC2=S)cc1
  -14%	.	4%	-1%	6%	.	5%
46. CN(C)CCCNc1c2c(nc3cc(-c4cccc(F)c4)nn13)CCC2
  -16%	-14%[46 µM]	?	-1%	8%	.	-4%
47. Cc1ccccc1NC(=O)c1cccc(OCc2c(C)noc2C)c1
  -3%	?	3%	1%	4%	-24%	-5%
48. COc1cc(OC)cc(C(=O)N(Cc2nc(-c3cccc(C)c3)no2)C(C)C)c1
  -14%	?	11%	-3%	-3%	-22%	-1%
49. Cc1cc(OC(C)C(N)=O)nc(-c2ccccc2)n1 (stereo not given)
  -2%	12%[46 µM]	3%	2%	12%	-3%	-2%
50. CC(=O)NC(CCS(C)(=O)=O)C(=O)Nc1ccc(Oc2ccccc2)cc1 (stereo not given)
  -3%	-5%	6%	1%	1%	11%	-5%
51. Cc1noc(C)c1C(=O)NCc1ccccc1Br
  i	22%[46 µM]	11%	-1%	11%	8%	-4%
52. CC(=O)Nc1ccc(C(=O)N/N=C/c2ccc(F)cc2)cc1
  8%	19%[46 µM]	5%	-2%	6%	-21%	3%
53. Cc1cc(CNC(=O)COc2ccccc2)c2ccccc2n1
  i	.	3%	-1%	12%	-64%[inhibitor]	-1%
54. O=C(N/N=C1/C[C@@H](O)[C@@H](O)[C@@H]2[C@@H]3C(=O)N(C4CCCCC4)C(=O)[C@H]3CC[C@H]12)OCc1ccccc1
  -3%[11.5 µM]	.	.	1%[11.2 µM]	.	.	-8%[11.2 µM]
55. O=C(O)CCCC(=O)N(Cc1ccccc1)Cc1ccccc1
  -2%	-5%	0%	-1%	1%	-11%	-18%
